# High-throughput results (PubChem BioAssay)
# Ecoli rRNA inh: inhibitors of bacterial rRNA selective over humanized ribosomes | 1.6% of 350,000 active | E. coli WT GFP vs humanized-ribosome RFP mutants, fluorescence, 24 h; stronger effect = lower value; DMSO median 0, no signal -100 | GFP signal change (wild-type ribosome), % (test concentration not listed);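 active = significant combined selectivity score with lowered wild-type GFP, culture density cut under 30%, mutant RFP and density less affected; inactive = any of these conditions unmet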; also: one replicate is shown; some compounds called inactive have numbers as strong as hits
# Ecoli growth: E. coli growth inhibition; Escherichia coli growth, OD600, 23 h; stronger effect = lower value; OD600 absorbance (no concentration beside the values); 0.21% of 330,000 active; AID 1053175;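 active = OD600 absorbance below the run mean of sample wells minus 3.6 SD, in any replicate, cut at about 0.56 in these data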;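 also: stock transfer was 300 nL into about 60 µL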
# ALR H2O2 inh: inhibitors of human sulfhydryl oxidase ALR. P55789. purified ALR, DTT oxidation, H2O2 HRP-luminol luminescence. inhibition, % (test concentration not listed). 3.8% of 290,000 active;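 active = mean and each replicate at 75% or more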;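 also: stock transfer was 7.5 nL into about 7.5 µL; 0% = neutral wells and 100% = wells with inactivated enzyme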
# B2AR ag: activates human beta-2 adrenergic receptor causing internalization; Am2.2-beta2AR cells, FAP receptor internalization, flow cytometry; reference of the scale not given here; response, % (no concentration beside the values); 0.43% of 340,000 active; AID 504454;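 active = response above a set limit, near 3 SD of response in nonfluorescent compounds, cut at about 42% in these data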;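 also: stock transfer was 100 nL into about 11 µL; a reference agonist was the positive control; negative values mostly stem from fluorescent compounds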
# Target sequence (P07550 whole entry, looked up): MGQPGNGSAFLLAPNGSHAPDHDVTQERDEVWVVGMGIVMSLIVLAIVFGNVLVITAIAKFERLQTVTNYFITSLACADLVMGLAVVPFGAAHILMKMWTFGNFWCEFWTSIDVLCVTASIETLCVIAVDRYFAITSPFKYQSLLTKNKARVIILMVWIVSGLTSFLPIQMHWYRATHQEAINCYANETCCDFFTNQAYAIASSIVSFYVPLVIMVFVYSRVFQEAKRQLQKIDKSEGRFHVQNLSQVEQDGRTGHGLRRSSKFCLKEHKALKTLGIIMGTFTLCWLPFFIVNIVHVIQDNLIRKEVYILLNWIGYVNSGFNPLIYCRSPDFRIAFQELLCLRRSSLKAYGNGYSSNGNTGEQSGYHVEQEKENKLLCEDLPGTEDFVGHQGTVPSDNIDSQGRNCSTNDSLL
# FGF22 binding: FGF22 (human) thermal shift binding. Q9HCT0. recombinant FGF22 thermal shift, SYPRO orange fluorescence; percent of sucrose octasulfate shift, DMSO zero. calls only at 9.99 µM. 1.5% of 340,000 active;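 active = melting point raised past a set limit in the mean and every replicate; three in four hits are not shown here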
# Target sequence (Q9HCT0 whole entry, looked up): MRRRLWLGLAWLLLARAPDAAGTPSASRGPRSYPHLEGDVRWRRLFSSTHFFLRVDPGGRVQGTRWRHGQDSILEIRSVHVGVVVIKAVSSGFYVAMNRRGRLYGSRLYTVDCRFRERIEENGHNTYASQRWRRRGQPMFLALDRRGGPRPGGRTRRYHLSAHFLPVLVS
# UCH37 inh: human UCH37 deubiquitinating enzyme inhibition | Q9Y5K5 | purified proteasome/UCH37, Ub-AMC cleavage fluorescence | inhibition, % (no concentration beside the values) | 0.33% of 330,000 active | AID 588478;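 active = mean of two replicates above 20%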;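 also: 0% = compound-free wells with enzyme and 100% = wells lacking proteasome; stock transfer was 100 nL into about 20 µL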
# Target sequence (Q9Y5K5 whole entry, looked up): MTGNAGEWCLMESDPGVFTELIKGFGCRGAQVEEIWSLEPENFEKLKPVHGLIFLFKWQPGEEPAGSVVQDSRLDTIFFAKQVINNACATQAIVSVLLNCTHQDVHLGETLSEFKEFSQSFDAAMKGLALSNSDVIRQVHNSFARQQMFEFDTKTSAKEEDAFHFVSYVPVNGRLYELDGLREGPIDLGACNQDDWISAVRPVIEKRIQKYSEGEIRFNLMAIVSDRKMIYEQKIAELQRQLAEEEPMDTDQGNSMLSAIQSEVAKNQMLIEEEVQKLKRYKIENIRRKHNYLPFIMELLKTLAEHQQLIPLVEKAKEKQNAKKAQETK
#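 Signal – fluorescence, ex 355 nm, em 460 nm · System – Proteasome-bound UCH37 · Input – 0.15 nM proteasome as dispensed · Timing – 30 min preincubation with enzyme, 25 min cleavage at room temperature · Read-out basis – percent inhibition of cleavage signal versus uninhibited and no-proteasome wells · Medium – Tris-HCl pH 7.4 with ATP-MgCl2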
# HNF4A DNA FP: change in binding of human HNF4 alpha to DNA; HNF4a-FITC DNA binding, fluorescence polarization, 1 h; P41235; activity change, % at 10 µM; 0.3% of 360,000 active; in the data active = activity change above about 30%, passing the limit was not always enough;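 also: controls were the assay level and a saturating level of protein; the project sought stronger binding though the title names inhibitors; some compounds called inactive have numbers as strong as hits; positive values seem to mean higher polarization but the record does not say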
# Ecoli rRNA inh OD600: further read-out of Ecoli rRNA inh, marked with its call; OD600 change, %; measured here: OD600 growth;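 optical density of the mix in the first replicate; 0 = DMSO median and -100 = no signal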
# Ecoli rRNA inh RFP: further read-out of Ecoli rRNA inh, marked with its call; RFP signal change, %; measured here: RFP humanized mutant strains;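 first replicate; 0 = DMSO median and -100 = no signal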
# An asterisk follows results filed as active; i = inactive; · = no result given; + = active, no number.
item	molecule	Ecoli rRNA inh	Ecoli rRNA inh OD600	Ecoli growth	FGF22 binding	B2AR ag	UCH37 inh	HNF4A DNA FP	Ecoli rRNA inh RFP	ALR H2O2 inh
1	COC(=O)C1=C(C)N(c2cc(Cl)cc(Cl)c2)C(=O)C1	·	·	0.66	·	20	0.0	1.7	·	3
2	O=C(NN1CCOCC1)c1ccc(Cl)s1	18	14	0.73	i	0	4.2	4.0	2.5	9
3	CCCCn1c(N)c(N(CC(C)C)C(=O)Cn2c(=O)cnc3ccccc32)c(=O)[nH]c1=O	10	17	0.65	i	-9	2.7	1.4	-1.1	-2
4	CSc1ccc(S(=O)(=O)NCC(=O)OC(C)C(=O)NCc2ccccc2)cc1[N+](=O)[O-] (stereo unspecified)	-3	8	·	i	-6	·	-3.1	-1.6	8
5	CCC(NC(=S)NCc1ccccc1)C(=O)O (stereo unspecified)	·	·	0.69	·	-6	1.5	1.2	·	-2
6	O=C(NCc1cccnc1)C(=O)N/N=C/c1ccccc1[N+](=O)[O-]	10	3	·	i	1	·	1.5	-7.7	-4
7	COCCN1CCN(Cc2nc(Cc3ccc(OC)c(OC)c3)no2)CC1	9	6	0.7	+	1	0.4	0.9	-1.2	-8
8	CC1=C(SCc2ccccc2)C(=O)c2ccccc2C1=O	-50	-72	0.65	i	5	32*	7.0	-16	·
9	Cc1ccc(O)c(C(=O)c2coc(=N)c(C(=O)NC(C)C)c2)c1	·	·	0.69	·	-2	2.0	1.8	·	49
10	O=C(CSc1nc2ccccc2s1)Nc1nccs1	·	·	0.69	·	-3	0.1	1.2	·	-9
11	COc1ccccc1N(CC(=O)NC1CCCCC1)C(=O)CNC(=O)c1cccs1	2	-3	0.69	i	-23	4.4	-1.0	-1.5	·
12	Cc1ccccc1C(=O)NC=C1C(=O)OC(C)(C)OC1=O	11	12	0.68	i	1	5.0	-0.6	-6.7	16
13	O=c1cc(-c2ccccc2)oc2cc(O)c(O)c(O)c12	·	·	0.69	i	-13	9.5	-17	·	·
14	CC(NC(=O)C(=O)NCC1CCCO1)c1ccccc1 (stereo unspecified)	9	6	0.7	·	1	-0.5	5.9	2.2	·
15	CCNC(=O)COC(=O)c1cc(C)n(-c2ccccc2)c1C	12	14	0.67	i	-3	1.8	-2.4	3.3	-16
16	CNC(=O)C(Sc1nc(C)nc2c1oc1ccccc12)C(C)=O (stereo unspecified)	·	·	0.73	·	8	14	-1.4	·	17
17	Cc1noc(C)c1C(=O)N1CCC1(C)C(=O)NS(=O)(=O)c1ccccc1C(F)(F)F (stereo unspecified)	7	5	·	i	·	·	1.9	-2.1	·
18	Cc1ccc(C)c(NC(=S)NCc2ccccc2)c1	-4	2	0.69	i	-2	0.8	2.5	-3.7	46
19	COc1cccc(-c2nc(CS(=O)CC(=O)NCc3ccccc3Cl)c(C)o2)c1 (stereo unspecified)	-14	-21	0.76	i	2	5.5	-4.0	0.5	99*
20	CC(=O)Nc1cccc(/C(C)=N/Nc2ccc(S(=O)(=O)Nc3ccccc3C(=O)O)cc2[N+](=O)[O-])c1	-4	9	·	i	5	·	-8.5	-0.9	·
21	COC(=O)c1ccccc1NC(=O)Cn1cnc2c(cnn2-c2ccc(C)c(C)c2)c1=O	·	·	0.71	·	·	-7.1	·	·	4
22	Cc1nnc(SCC(=O)Nc2ccccc2N2CCOCC2)s1	·	·	0.71	·	-4	-0.2	0.9	·	-6
23	N#Cc1c(N)nc(SCc2ccncc2)c(C#N)c1-c1cccs1	·	·	0.68	·	-1	-8.8	3.0	·	-9
24	COc1ccc(C(c2nnnn2C2CCCCC2)N2CCN(C/C=C/c3ccccc3)CC2)cc1 (stereo unspecified)	-34	-63	·	i	·	·	1.9	-3.4	·
25	CC#CC[N+](C)(C)CCCCCC	14	14	0.7	i	14	2.4	-4.3	-0.9	·

# (more compounds)
item	molecule	Ecoli rRNA inh	Ecoli rRNA inh OD600	Ecoli growth	FGF22 binding	B2AR ag	UCH37 inh	HNF4A DNA FP	Ecoli rRNA inh RFP	ALR H2O2 inh
26	CCCCCCC(O)(CCN1CCCCC1)c1ccccc1 (stereo unspecified)	4	-4	0.69	i	-8	1.8	-2.9	3.6	-21
27	CCOC(=O)COc1nc(OC)nc(N2CCOCC2)n1	·	·	0.72	·	0	2.5	-0.3	·	-3
28	Cc1[nH]c2ccccc2c1/C=N/NC(=O)c1ccccc1	1	6	·	i	-1	·	1.1	0.3	24
29	CCOC(=O)c1nc(NCc2ccccc2C)c2ccccc2n1	-18	-26	0.68	i	17	4.6	0.6	-4.7	14
30	O=c1ccc2ccc(O[C@@H]3O[C@H](CO)[C@@H](O)[C@H](O)[C@H]3O)c(O)c2o1	0	-9	·	i	-5	4.4	-2.3	-2.3	3
31	CN(C)S(=O)(=O)c1ccc(C(=O)NN2C(=O)NC3(CCCCC3)C2=O)cc1	5	4	0.71	i	-4	1.4	0.5	-1.2	·
32	CCc1nc(N2CCC3(CC2)OCCO3)c2nnn(Cc3ccccc3Cl)c2n1	·	·	0.69	·	0	-1.0	0.7	·	-2
33	C[C@H]1CN([C@@H](C)CO)S(=O)(=O)c2ccc(Br)cc2O[C@H]1CN(C)Cc1ccccc1F	-17	-48	·	i	·	·	-2.9	13	·
34	CCOC(=O)CNC(=O)c1cn(CC)c(=O)c2cc(OC)c(OC)cc12	·	·	0.68	·	1	0.2	-2.1	·	-11
35	COc1ccc(NC(=O)c2ccc(NC(=O)CCS(=O)(=O)c3cccs3)cc2)cc1	-1	4	0.66	i	6	-0.8	1.8	-2.1	-1
36	O=C(CCCn1c(SCC(=O)Nc2ccccc2C(F)(F)F)nc2ccccc2c1=O)NCC1CCCO1 (stereo unspecified)	2	14	0.72	i	-3	5.8	-1.7	-1.6	-3
37	CC(=O)Nc1cccc(-c2ccnc3c2CC(C)(C(=O)Nc2cccnc2)O3)c1 (stereo unspecified)	-2	6	·	i	·	·	2.6	0.3	·
38	CCOC(=O)C1=C(C)NC(=O)C(C(N)=O)C1c1ccccc1 (stereo unspecified)	·	·	0.69	·	-6	1.0	1.1	·	-1
39	Cc1ccc2cc(C#N)c(N3CCCN(C(=O)c4cnccn4)CC3)nc2c1	-2	-15	0.66	i	-3	-14	3.9	-2.6	-7
40	COC(=O)C1=C[C@@H](C(=O)OC)[C@@H]2C3=C(C(=O)[C@@]2(C)NC(=O)c2ccccc2)[C@H](C)n2c(=O)n(C)c(=O)n2[C@@H]3C1	14	9	·	i	3	0.8	3.2	-1.1	2
41	COC/C=C/C1=CC2=CC(=O)C(C)(OC(=O)c3cnc4ccccc4n3)C(=O)C2=CN1Cc1ccccc1 (stereo unspecified)	11	9	·	i	-3	4.3	-13	-0.1	-31
42	COC(=O)c1c(C)[nH]c(C(=O)CN2CCOCC2)c1C	·	·	0.71	·	5	-1.1	-2.7	·	-3
43	OC[C@@H]1CN(Cc2ccc3c(c2)OCO3)C[C@H](n2cnc3c(NCc4ccco4)ncnc32)O1	0	5	·	i	·	·	4.6	6.6	·
44	O=C(CSCc1ccc([N+](=O)[O-])cc1)N/N=C/c1ccncc1	6	9	·	i	-4	·	3.1	0.8	-33
45	Cc1ccc(NC(=O)CSCC(=O)Nc2ncc3c(n2)CC(c2ccco2)CC3=O)cc1 (stereo unspecified)	·	·	0.75	·	-10	1.6	-3.6	·	12
46	CC(C)CCn1nc(C(=O)OC(C)C(=O)NC(N)=O)c2ccccc2c1=O (stereo unspecified)	·	·	0.67	·	-9	3.8	1.3	·	-9
47	CN1C(=O)N(C)c2cccc3cccc1c23	4	-14	0.66	i	-4	0.1	0.0	0.0	-19
48	COc1ccc(N2CCN(C(=O)c3ccc(N(C)S(=O)(=O)c4ccc(OC)cc4)cc3)CC2)cc1	-24	-22	0.7	i	13	-1.2	0.2	5.0	10
49	Cc1ccc(-c2onc3ccc(C4OCCO4)cc23)cc1	17	0	0.7	i	14	2.2	-1.3	1.9	1
50	COc1cc(C(=O)NCCCN(C)C)ccc1OCC(=O)Nc1cccc(C(F)(F)F)c1	1	-4	0.62	i	-1	7.1	-3.5	3.0	-2

# Continuation.
item	molecule	Ecoli rRNA inh	Ecoli rRNA inh OD600	Ecoli growth	FGF22 binding	B2AR ag	UCH37 inh	HNF4A DNA FP	Ecoli rRNA inh RFP	ALR H2O2 inh
51	CCN1CCN(C(C(=O)NC2CCCCC2)C2CC2)CC1 (stereo unspecified)	21	18	·	i	·	·	1.1	-2.7	·
52	Nc1ccc2nc(-c3ccccc3)cnc2c1	0	10	0.62	i	-43	-9.8	-36	-3.2	-49
53	CCN(c1ccccc1)S(=O)(=O)c1ccc(Oc2ccc(C(C)=O)cc2OC)nc1	·	·	0.68	i	-1	1.2	15	·	-6
54	CCOC(=O)Cn1cnc2scc(-c3ccc(C)cc3)c2c1=O	-13	-15	0.68	i	13	4.7	5.0	-3.2	-4
55	COCc1c(C(=O)NC2CCCCC2)sc2cccc(F)c12	-18	-43	0.66	i	3	-0.9	-2.0	-9.4	·
56	Cc1ccccc1OCC(=O)OCC(=O)NCc1ccco1	8	5	0.7	i	-1	-0.2	4.5	-2.0	1
57	O=C1/C(=C/c2cccnc2)CCc2c1[nH]c1ccccc21	-35	-5	0.72	i	-10	2.9	2.8	16	-11
58	Cc1cc(N2C(=O)C3C4C=CC(C4)C3C2=O)ccc1Br (stereo unspecified)	·	·	0.71	·	-4	1.6	-2.0	·	·
59	C=CCn1c(CNC(=O)c2cccs2)nnc1SCc1ccc(Cl)cc1Cl	·	·	0.67	·	-21	2.4	1.9	·	-9
60	COc1ccc(CCNC(=O)c2c(C)cc(=O)oc2C)cc1OC	7	2	0.72	i	-11	17	1.5	-5.5	-25
61	CC(C)(O)C#Cc1ccc(C(=O)N2CCN(c3ccc([N+](=O)[O-])cc3)CC2)cc1	-3	2	0.68	i	-8	8.3	0.1	-1.2	4
62	C=CCOC(=O)C1=C[C@H](C(C)(C)C)[C@@H](CCCO)[C@H](OCC)O1	·	·	·	·	4	1.9	-0.3	·	-4
63	CNC(=O)CS(=O)CC(=O)Nc1cc(OC(C)C)c(Cl)cc1Cl (stereo unspecified)	8	-2	0.65	·	11	-0.3	2.2	-5.5	0
64	O=C(COC(=O)c1cc(Br)ccc1Cl)NC1CCCC1	12	1	0.72	·	41	5.4	4.0	-4.1	1
65	COCCN1Cc2cccc(C(=O)NCc3cccnc3)c2C1=O	2	4	0.7	i	6	2.5	-1.3	0.4	-2
66	CCC(C)Sc1ccc([C@@H]2[C@@H]3C(=O)N(CC)C(=O)[C@@H]3[C@]3(C(=O)OC)CCCCN23)cc1OC (stereo partly specified)	8	12	·	i	3	0.1	5.8	9.2	-4
67	NS(=O)(=O)c1ccc(CCNc2ncnc3c2c(-c2ccccc2)cn3-c2ccc(F)cc2)cc1	·	·	0.72	·	-2	2.5	-1.2	·	-3
68	COc1ccc(N/N=C(\C#N)C(=O)NCCc2ccc(OC)c(OC)c2)cc1	-38*	-23*	·	i	1	·	1.3	-0.5*	36

# These rows are one share of the data (hit frequency here may not be typical).
